Assay outcomes as filed in PubChem.
RE007 growth inh – less growth of the S. pombe RE007 Vpr strain. S. pombe RE007 Vpr strain, BacTiter-Glo ATP luminescence, 24 h; control for the full effect not named in the record. Potency, µM (series often up to 92.2 µM), for inactives: at the highest dose activity change, negative = less growth. 360,000 tested, 0.21% active. AID 651644; active = well fitted falling curve with a large enough effect; inconclusive = small, poorly fitted or top-dose-only effect; inactive = no such curve, though single readings can be large or run the other way;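 also: % is scaled to controls: 0 for no effect and ±100 for the full control effect; nearly all actives have a fitted effect of over 50% in size; the assay follows cell death caused by Vpr and the record does not say whether a fall means rescue or toxicity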
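Fission yeast strain RE007, carrying one chromosomally integrated HIV-1 vpr copy, was seeded at OD 0.01 in PMG+AL medium with 23 nL pinned compound. After 24 h at 30 °C and 99% humidity, viability was read by BacTiter-Glo luminescence.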
MARV entry inh – inhibitors of Marburg virus binding or cell entry | Potency, µM (series often up to 37.8 µM), without a hit: at the highest dose activity change, negative = inhibition, usual class: inhibitors | Marburg virus pseudotyped entry inhibition, cell reporter; control for the full effect not named in the record; about a third of the inactives were read at about 46 µM | 300,000 tested, 1.8% active; active = well fitted inhibition curve with a large enough effect; inconclusive = small, poorly fitted or top-dose-only effect, or effect the other way; inactive = flat fitted curve, though single readings scatter; tested in HEK293 cells; about a fifth of its hits are not listed in these tables; also: % is scaled to controls: 0 for no effect and ±100 for the full control effect; luciferase read-out
StopGo reporter – FMDV 2A StopGo reporter, luciferase signal; human cells with a luciferase reporter of 2A StopGo recoding; control for the full effect not named in the record; Potency, µM (top dose mostly 57.9 µM), inactives show at the highest dose signal change, negative = less light; 410,000 tested, 1.2% active; AID 1159524; active = well fitted falling curve with a large enough effect; inconclusive = small, poorly fitted or top-dose-only effect; inactive = no such curve, though single readings can be large or run the other way; tested in HEK293T cells; also: % is scaled to controls: 0 for no effect and ±100 for the full control effect; nearly all actives have a fitted effect of over 45% in size; luciferase light after 4 h
NS1 inh – inhibitors of influenza NS1 protein function | S. cerevisiae slowed by influenza A NS1, growth recovery by OD600 | Potency, µM (doses to about 46.1 µM), inactives show top-dose activity, positive = more growth | 270,000 tested, 0.4% active; active means well fitted rising curve with a large enough effect; inconclusive means small, poorly fitted or top-dose-only effect; inactive means no such curve, though single readings can be large or run the other way; also: nearly all actives have a fitted effect of over 50% in size
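Compounds were scored for reversing the slow growth caused by influenza A NS1 in S. cerevisiae, measured by optical density at 600 nm. Assay medium contained 2% galactose at pH 6.0; NS1-free yeast of the same strain were the positive control.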
Cruzain Triton – blocks cruzain activity in presence of Triton detergent; P25779; purified cruzain, Z-FR-AMC fluorescence, 0.01% Triton; Potency, µM, without a hit: max response, negative = inhibition, usual class: inhibitors; 200,000 tested, 0.43% active;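 also: plate controls were neutral wells for no effect and buffer without enzyme for full effect; nearly all actives have a fitted effect of over 40% in size; top concentration of the series not given in the record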
Target sequence (P25779 123-467 limits assumed): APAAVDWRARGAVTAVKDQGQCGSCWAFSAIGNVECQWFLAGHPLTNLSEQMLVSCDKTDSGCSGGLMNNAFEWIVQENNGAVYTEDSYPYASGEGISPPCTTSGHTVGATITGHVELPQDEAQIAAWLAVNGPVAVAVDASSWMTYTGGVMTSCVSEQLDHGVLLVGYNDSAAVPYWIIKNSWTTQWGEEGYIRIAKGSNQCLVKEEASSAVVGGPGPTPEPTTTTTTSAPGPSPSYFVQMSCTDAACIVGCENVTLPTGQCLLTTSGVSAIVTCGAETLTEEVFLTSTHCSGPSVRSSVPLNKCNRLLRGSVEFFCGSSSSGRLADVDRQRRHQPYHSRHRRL
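Steps: dispense cruzain (1.5 nM final) in acetate buffer pH 5.5 with DTT and 0.01% Triton X-100; pin-transfer compounds; incubate 15 min RT; add Z-FR-AMC (2 uM final); read fluorescence every 30 s, using the 60 s intensity change.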
Cruzain inh noDet – cruzain (T. cruzi) inhibition without detergent | P25779 | purified cruzain, Z-FR-AMC fluorescence, no detergent | Potency, µM, inactives show max response, negative = inhibition, actives largely listed as inhibitors | 200,000 tested, 2.3% active;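 also: plate controls were enzyme without inhibitor for no effect and buffer without enzyme for full effect; nearly all actives have a fitted effect of over 40% in size; top concentration of the series not given in the record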
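Detergent-free condition (0.00005% Triton X-100) in acetate buffer pH 5.5 with DTT. 1.5 nM enzyme and compound were pre-mixed 15 min, then 2 uM Z-FR-AMC substrate added; reaction progress from fluorescence change between first and third reads (60 s).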
LASV entry inh – Lassa virus entry inhibition; Lassa virus pseudotype entry inhibition, cell reporter; control for the full effect not named in the record; Potency, µM (titrated, usually from 37.9 µM), without a hit: at the top dose activity change, negative = inhibition, usual class: inhibitors; 300,000 tested, 1.2% active; AID 540256; active means well fitted inhibition curve with a large enough effect; inconclusive means small, poorly fitted or top-dose-only effect, or effect the other way; inactive means flat fitted curve, though single readings scatter; tested in HEK293 cells; also: % is scaled to controls: 0 for no effect and ±100 for the full control effect; nearly all actives have a fitted effect of over 50% in size; luciferase read-out
SARS PLP yeast – SARS-CoV PLP inhibition in yeast; Potency, µM (top dose mostly 32.9 µM), for inactives: top-dose activity, positive = growth rescue; AID 485353; S. cerevisiae expressing SARS-CoV PLpro, growth rescue; control for the full effect not named in the record; 330,000 tested, 0.19% active; active means well fitted rising curve with a large enough effect; inconclusive means small, poorly fitted or top-dose-only effect; inactive means no such curve, though single readings can be large or run the other way; also: 0% is about no effect; nearly all actives have a fitted effect of over 55% in size; growth read by luminescence after 48 h
* hit, by the source's call; u = inconclusive; x = no result given; ! = repeats disagree; [ ] = dose if it differs, or a comment. Unless noted, calls follow the shape of the dose curve; as a rule, active = well fitted curve in the direction sought with a large enough effect; inconclusive = small, poorly fitted or top-dose-only effect, or another doubt; inactive = no such curve, though single readings can be large; an effect the other way counts as inactive or inconclusive. Potency is read from the fitted curve at half-maximal effect.

SMILES	RE007 growth inh	MARV entry inh	StopGo reporter	NS1 inh	Cruzain Triton	Cruzain inh noDet	LASV entry inh	SARS PLP yeast
NC(=O)C1(NC(=O)[C@@H]2CC3(CC(c4cccc(NC(=O)[C@@H]5CCC(=O)N5)c4)=NO3)CN2C(=O)c2ccccc2)CC1 (stereo partly specified)	-11%	x	7%	-1%	3.3%	-6%	x	-1%
CCCC(C)C(=O)Nc1ncc(S(=O)(=O)c2ccc([N+](=O)[O-])cc2)s1 (stereo unspecified)	-13%	-46%[46.1 µM]	u	7%	x	x	u	u
CCCNS(=O)(=O)c1ccc(CCC(=O)NCCc2ccc(OC)c(OC)c2)cc1	-7%	4%[46.1 µM]	-9%	6%	x	x	9%	0%
CCO[C@@H]1OC(C(=O)N2CCN(Cc3ccccc3)CC2)=C[C@H](c2ccccc2)[C@H]1CCCO	-3%	x	-19%	-4%	x	x	x	-1%
CCN(CC)C(=O)Oc1nnc(SC(C)C)n1-c1ccc(Cl)cc1	8%	30%	-6%	-3%	x	x	-6%	1%
O=C(CNc1c(Br)cc(Br)cc1Br)NN=C1CCCCC1	x	-7%	x	15%	2.4%	u	x	2%
O=C(NNc1c(F)c(F)cc(F)c1F)c1ccc(Cl)nc1	49%	-8%[46.1 µM]	-1%	-9%	x	x	10%	11%
O=C(c1ccc(F)cc1F)N1CCN(S(=O)(=O)c2ccc3c(c2)OCCO3)CC1	-6%	-10%	u	x	x	x	-3%	-10%
CCCN1CCc2c(sc3nc(SCC)n(-c4ccccc4)c(=O)c23)C1	-14%	u	-13%	3%	x	x	u	0%
COc1ccc(C2C(C(=O)O)CC(=O)N2C2CCCCC2)cc1 (stereo unspecified)	13%	26%	-12%	-10%	3.8%	-18%	-10%	4%
O=C(NCC1CCCO1)c1ccc2c(=O)n(-c3ccc(F)cc3)c(=S)[nH]c2c1 (stereo unspecified)	6%	-24%[46.1 µM]	11%	x	x	x	1%[46.1 µM]	-1%
CCOC(=O)Nc1cccc(NC(=O)c2ccccc2F)c1	-1%	x	15%	0%	x	x	x	-1%
CCC1(CC)NC(=O)N(CC(=O)OCC(=O)NC(=O)c2ccccc2OC)C1=O	-12%	9%[46.1 µM]	-9%	x	x	x	3%	3%
O=C(CN1C(=O)CSc2ncccc21)Nc1cccc(Cl)c1	14%	x	25%	5%	x	x	x	-1%
CC(C)(C)c1cc(C=C(C#N)C#N)cc(C(C)(C)C)c1O	-8%[18.4 µM]	2.1µM*	4µM*!	-45%	-15%	2%	0.41µM*	x
COc1ccccc1C(=O)Nc1ccc2nc3n(c(=O)c2c1)CCCC3	-12%	x	13%	-2%	x	x	x	-2%
O=C(c1ccc(NS(=O)(=O)c2ccc(F)cc2)cc1)N1CCN(c2ccccc2O)CC1	-3%	-20%	-12%	8%	x	x	u	4%
Cc1nnc(SCc2ccccc2Cl)n(N)c1=O	2%	28%[46.1 µM]	8%	x	x	x	1%[46.1 µM]	-5%
CC(C)N1CC(C(=O)Nc2cc(Cl)cc(Cl)c2)CC1=O (stereo unspecified)	-3%	x	-14%	0%	x	x	x	3%
C/C(=N\NC(=O)COc1cc(C)cc(C)c1)c1ccc(N2CCOCC2)cc1	-14%	3%[46.1 µM]	u	-4%	-6.6%	6%	u	-7%
CC1(C)Cc2cccc(OCC(=O)OCc3nnc(-c4ccccc4)o3)c2O1	-11%	u	-6%	x	x	x	17%	-3%
C#CCOc1ccccc1C(N)=O	37%	0%	-4%	-3%	x	x	12%	0%
Cc1ccccc1C(=O)Nc1sc2c(c1C(=O)N1CCC(C)CC1)CCCC2	x	-18%[46.1 µM]	59%[activator]	x	-9.1%	-9%	17%[46.1 µM]	x
Cc1ccc(NC(=O)CSc2nc3c(oc4ccccc43)c(=O)n2Cc2ccco2)cc1F	x	-1%[46.1 µM]	2%	x	1.0%	-2%	0%[46.1 µM]	x
Cn1c(=O)[nH]c(=O)c2c1nc(N1CCCCCC1)n2CCCSc1nnnn1-c1ccccc1	x	-26%	x	-9%	-3.5%	3%	u	8%
Cc1ccc(C(=O)OCC(=O)Nc2ccccc2C(F)(F)F)cc1S(=O)(=O)N1CCOCC1	16%	-9%[46.1 µM]	-6%	22%	3.6%	12%	0%	3%
NC(N)=N/N=C/c1ccccc1	12%	-3%	4%	3%	-3.8%	-6%	u	-4%
CCN(CC)CCN(C)Cc1nc(C(c2ccccc2)c2ccccc2)no1	2%	x	-14%	19%	x	x	x	5%
COCCNC(=O)CN(C(=O)CCC(=O)Nc1nccs1)c1ccccc1OC	4%	-6%	-15%	1%	5.5%	5%	-3%	7%
Cc1ccc(-c2csc(NC(=O)c3cccc(C)c3)c2C(=O)O)cc1	-10%	u	21%	x	x	x	u	x
CCOc1cccc2cc(-c3csc(NC(=O)CCC(=O)N4CCC(C)CC4)n3)c(=O)oc12	-13%	-1%	4%	5%	-5.7%	1%	u	3%
CC(Oc1ccc2c3c(c(=O)oc2c1)CCCC3)C(=O)NC1CC(C)(C)NC(C)(C)C1 (stereo unspecified)	-1%	x	-14%	-3%	x	x	x	-2%
CC(NC(=O)c1cccs1)C(=O)NC1=NCCS1 (stereo unspecified)	4%	11%	x	1%	11%	-5%	u	2%
COC(=O)c1cc(CN2CCN(c3ccccc3)CC2)ccc1O	1%	x	-8%	7%	x	x	x	-2%
Cc1c(Br)cccc1NC(=O)c1sccc1-n1cccc1	4%	u	-30%	-6%	0.4%	-11%	3%	u
CN1c2ccccc2-c2nc3ccccc3n2C1c1ccccn1 (stereo unspecified)	-3%	-14%	-27%	-134%	-26%	-2%	1%	-9%
CC(C)(C)c1ccc(C(=O)N2CCN(CCNC(=O)C(=O)Nc3ccc(F)cc3)CC2)cc1	-15%	-28%	-29%	2%	x	x	-16%	5%
CCC12CN3CC(C)(CN(C1)C3c1c(C)[nH]c3ccccc13)C2=O (stereo unspecified)	x	-1%[46.1 µM]	-26%	x	-2.5%	6%	x	x
Cc1noc(C)c1CSc1nnc2ccccn12	-10%	5%	-13%	0%	1.6%	6%	6%	-7%
c1ccc(CCNc2nnnn2-c2ccccc2)cc1	0%	10%	97%[activator]	-11%	3.7%	2%	-3%	-2%
CC(=O)Nc1ccc(NC(=O)c2ccc(-c3ccc([N+](=O)[O-])cc3)o2)cc1	-5%	x	-22%	15%	x	x	x	3%
C=CCn1c(-c2csc(-c3ccc(OC)c(OC)c3)n2)n[nH]c1=S	-2%	7%[46.1 µM]	-3%	x	x	x	13%	-1%
O=C(CSc1n[nH]c(-c2ccccc2)n1)Nc1ccc(N2CCOCC2)cc1	12%	1%	0%	0%	x	x	4%	-1%
O=C(CSCc1nc2ccccc2[nH]1)N1CCN(c2ccc(F)cc2)CC1	3%	u	35µM*	3%	-0.8%	-8%	2%	-3%
CN(C)C(=S)Nn1c(-c2ccccc2)nc2ccccc2c1=O	-3%	2%[46.1 µM]	2%	14%	-0.7%	9%	22%	10%
C=CCOc1ccc(C(c2c(C(=O)O)[nH]c3ccccc23)c2c(C(=O)O)[nH]c3ccccc23)cc1	14%	8%	9%	u	x	x	3%	0%
Cc1ccc(CNC(=O)c2ccccc2NS(C)(=O)=O)cc1	13%	-2%[46.1 µM]	-5%	0%	5.0%	-2%	-2%	-3%
COc1cc(C(=O)NCC(=O)N/N=C/c2cccnc2)cc(OC)c1OC	9%	16%[46.1 µM]	-8%	-3%	x	x	9%	2%
CC(C)(C)OC(=O)N1CCC(c2c(C(=O)NC3CCCCC3)cnn2-c2cccc(F)c2)CC1	x	x	-17%	x	-0.5%	12%	3%[46.1 µM]	x
COc1ccc(-c2csc(Nc3ccccc3)n2)cc1	-6%	u	-19%	4%	x	x	u	-3%
COc1ccc(N2C(N)=NC(N)=NC2(C)C)cc1	-12%	u	-19%	16%	11%	3%	u	4%
Cc1cc(C)cc(OCC(=O)N2CCC(c3nc4ccccc4o3)CC2)c1	x	-3%[46.1 µM]	-19%	x	-6.1%	23%	4%[46.1 µM]	x
Cc1[nH]nc2c1C(CC(C)C)C(C#N)=C(N)O2 (stereo unspecified)	13%	u	-24%	-2%	x	x	6%	0%
O=C(O)c1cccc(-n2cnc3cccnc32)c1	x	18%[46.1 µM]	-21%	x	-1.5%	2%	u	x
CC1CCCN(c2nc(-c3cccnc3)nc3scc(-c4ccccc4)c23)C1 (stereo unspecified)	10%	-14%	-10%	-32%	-2.6%	u	u	-19%
O=C(Cn1cncn1)N/N=C/c1ccc(Cl)cc1	2%	u	-8%	5%	-3.3%	-9%	7%	-13%
CCOc1cc(N2CCOCC2)c(OCC)cc1NC(=O)COc1ncnc2ccccc12	-5%	-35%	-9%	2%	0.3%	u	-18%	-3%
COc1cc(/C=N\NC(=O)CC(=O)NCCc2ccccc2)ccc1O	-12%	u	-11%	4%	x	x	-13%	0%
CC(=O)Nc1sc2c(c1C(c1cccs1)N1CCOCC1)CCCC2 (stereo unspecified)	-1%	-4%	-30%	4%	0.5%	u	u	-4%
CCOC(=O)C1C(=O)N(C(=O)c2ccc(OC)cc2)CC1c1ccccc1 (stereo unspecified)	0%	4%	-8%	1%	-1.1%	4%	18%	7%
CC(C)(C)NC(=O)CSc1nnc(-c2ccccn2)n1Cc1ccccc1	-16%	-16%[46.1 µM]	3%	-39%	x	x	-3%	0%
COc1ccccc1CNC(=O)CCNS(=O)(=O)c1ccc2c(c1)CC(C)N2C(C)=O (stereo unspecified)	-4%	x	10%	-6%	x	x	x	-1%
CN(C)S(=O)(=O)c1cccc(C(=O)Nc2ccccc2Cl)c1	-1%	15%	2%	-2%	4.0%	-6%	2%	-3%

Two entries picked at random from those above:
SMILES	RE007 growth inh	MARV entry inh	StopGo reporter	NS1 inh	Cruzain Triton	Cruzain inh noDet	LASV entry inh	SARS PLP yeast
O=C(Cn1cncn1)N/N=C/c1ccc(Cl)cc1	2%	u	-8%	5%	-3.3%	-9%	7%	-13%
CC(=O)Nc1sc2c(c1C(c1cccs1)N1CCOCC1)CCCC2 (stereo unspecified)	-1%	-4%	-30%	4%	0.5%	u	u	-4%
